Mtb H37Rv: M. tuberculosis H37Rv growth inhibitors, H37Rv strain (AID 1626). M. tuberculosis H37Rv growth inhibition; higher % means a stronger effect. actives 0.95% (n = 220,000). one-dose inhibition, % at 10 µM; IC50 in µM for titrated hits;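 active means confirmed in a dose series; inconclusive means inhibition above 80% but not taken into the dose series; inactive means below 80% or under 30% at every dose of the series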;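 further: bacteria incubated seven days before Alamar blue readout; 0% = bacteria only wells and 100% = bacteria with antibiotic wells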
Mtb bLac sens: beta-lactam sensitization of Mtb H37Rv | actives 0.27% (n = 330,000) | AID 434955 | inhibition, % at 25 µM | M. tuberculosis H37Rv growth with meropenem, percent inhibition; hits of this screen are not shown here;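 active means about 74% or more and at least 40 points above the plate without the antibiotic, then above 30% in a dose series; inconclusive means first-round hits that could not be retested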;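 further: growth measured after seven days incubation then overnight dye step; 0% = bacteria only wells and 100% = bacteria with antibiotic; twin plates without the antibiotic show which effects depend on it; some results filed as inactive read as strong as hits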
Arbovirus anti: antivirals against arbovirus infection; actives 0.37% (n = 200,000); arbovirus infection cell-based antiviral screen; inhibition, % at 10 µM;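 active means inhibition from about 30%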;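 further: bluetongue infection of BSR cells; cell survival read as ATP light after 72 h; 0% = infected wells without compound and 100% = uninfected wells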
YopH PTP inh: inhibitors of Yersinia enterocolitica YopH tyrosine phosphatase; fluorescence Ex485/Em525; inhibition, %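 (about 10 µM by stock and volumes)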; actives 0.16% (n = 140,000);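 active means inhibition of 50% or more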;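 further: controls were vehicle for no effect and minimum signal wells for full effect; inactives centre near -20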
RecA splice inh: blocks M. tuberculosis RecA intein splicing | inhibition, %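 (about 9 µM by stock and volumes)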 | actives 0.75% (n = 290,000) | P9WHJ3 | AID 2221 | cell-free RecA intein splicing, fluorescence; in the data active means inhibition above about 30%; inconclusive means no clear call, values can overlap the other calls;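 further: 0% = vehicle wells and 100% = reference inhibitor control wells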
Target sequence (P9WHJ3 whole entry, looked up, canonical isoform): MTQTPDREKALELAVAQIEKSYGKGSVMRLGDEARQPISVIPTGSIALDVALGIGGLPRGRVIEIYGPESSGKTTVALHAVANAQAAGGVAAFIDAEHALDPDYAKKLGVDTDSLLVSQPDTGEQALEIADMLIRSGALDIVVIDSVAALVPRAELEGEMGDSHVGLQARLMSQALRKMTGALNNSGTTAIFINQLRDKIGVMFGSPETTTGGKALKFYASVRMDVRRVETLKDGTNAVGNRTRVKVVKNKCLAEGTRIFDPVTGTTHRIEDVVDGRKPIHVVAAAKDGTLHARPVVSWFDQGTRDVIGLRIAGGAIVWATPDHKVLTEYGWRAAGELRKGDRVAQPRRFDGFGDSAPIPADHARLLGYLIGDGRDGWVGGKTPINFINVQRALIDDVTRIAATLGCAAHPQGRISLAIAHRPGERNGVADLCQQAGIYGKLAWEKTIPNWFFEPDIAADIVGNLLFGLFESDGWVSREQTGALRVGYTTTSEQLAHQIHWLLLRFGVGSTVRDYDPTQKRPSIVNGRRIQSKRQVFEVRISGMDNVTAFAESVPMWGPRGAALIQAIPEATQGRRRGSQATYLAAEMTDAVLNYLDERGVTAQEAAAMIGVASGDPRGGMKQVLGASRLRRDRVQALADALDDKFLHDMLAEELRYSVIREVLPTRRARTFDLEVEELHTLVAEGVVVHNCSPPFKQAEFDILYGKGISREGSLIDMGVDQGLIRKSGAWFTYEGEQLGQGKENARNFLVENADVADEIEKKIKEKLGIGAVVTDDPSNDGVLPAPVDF
Arbovirus anti repeat: recorded beside Arbovirus anti, whose call it bears; inhibition, %; measured here: 10K subset replicate screen; many hits read low in the repeat;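 first of two repeat runs on a subset; 0% = infected and 100% = uninfected wells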
The depositor's hits bear a star; u = inconclusive; x = no result given. Only part of the results is shown; count on the stated rates, not on these rows.

SMILES | Mtb H37Rv | Mtb bLac sens | Arbovirus anti | YopH PTP inh | RecA splice inh | others
Cc1ccc(CSc2ncnc3ccccc23)cc1 | 5% | 8 | 8 | x | 0.9
C=CCN=C(NC#N)SCC(=O)NC(C)(C)C | 0% | 8 | 8 | -8 | -0.3
COc1ccccc1CNC(=O)[C@@H]1CCCN1S(=O)(=O)c1ccccc1F | x | 1 | x | x | 0.3
CCOc1ccc(C(=O)CCN2CCOCC2)cc1 | x | 94 | x | x | 0.0
O=c1cc(N2CCCC2)[nH]c(=O)n1-c1ccc(Cl)cc1 | -3% | -2 | -2 | -26 | 0.4
Cc1ccc(CSCCNC(=O)CN(c2cc(C)ccc2C)S(C)(=O)=O)cc1 | -1% | 8 | 5 | x | 3.0
O=C(N/N=C/c1cc(Br)ccc1O)c1cccc(N2CCCC2=O)c1 | 5% | 10 | -35 | -12 | 0.5
O=C(O)C(Oc1ccc2c3c(c(=O)oc2c1)CCC3)c1ccccc1 (centres undefined) | -10% | -6 | -1 | -5 | 3.3
NC(=O)c1cc2ccccc2o/c1=N\NC(=O)c1ccco1 | -5% | 3 | -3 | -31 | -1.3
COc1ccc(N(CC(=O)N/N=C/c2ccc3c(c2)OCO3)S(=O)(=O)c2ccc(NC(C)=O)cc2)cc1 | 15% | 26 | 1 | x | -0.5
O=C(NC(=S)NCc1ccco1)c1ccccc1[N+](=O)[O-] | x | -15 | x | x | 2.1
Cc1ccc(C(=O)NN2CCOCC2)cc1 | -3% | -6 | 1 | 23 | -2.2
COc1ccc(NS(=O)(=O)c2ccc3c(c2)n(C)c(=O)n3C)cc1 | -5% | -8 | 1 | -3 | -3.3
CCCC1=[N+](CC)CCn2c(C)ccc21 | -5% | -4 | 4 | -50 | -0.2
O=C(Nc1ccncc1)c1cccs1 | -2% | -3 | 7 | -50 | x | Arbovirus anti repeat=-1
Cc1nn(-c2ccccc2)c2c1C(c1cccs1)C(C#N)=C(N)O2 (centres undefined) | -2% | 0 | 0 | -5 | 92*
CC(C)c1noc2ncc(C(=O)c3cc(Cl)cc(Cl)c3O)cc12 | -6% | -2 | 14 | -8 | 1.7
O=C(CCCn1c(=O)c2cccn2c2cccnc21)NCc1cccc(Br)c1 | x | 5 | x | x | -2.4
O=C(NCC(=O)N1CCN(Cc2ccccc2)CC1)c1ccc(Cl)cc1 | x | 4 | x | x | -1.2
O=C(CCCN1C(=O)/C(=C/c2cccs2)SC1=S)NNC(=O)c1cccnc1 | -8% | -5 | x | x | -2.5
Cc1cc(C)cc(N(CC(=O)NC2CCC(C)CC2)S(=O)(=O)c2c(C)noc2C)c1 (centres undefined) | 3% | 0 | 3 | -3 | x | Arbovirus anti repeat=4
O=C(Nc1ccccc1)c1ccc(F)cc1F | -19% | -11 | x | x | 0.1
Cc1ccc(-n2cccc2/C=C2\C(=N)N3N=C(C(C)C)SC3=NC2=O)cc1 | 6% | 3 | 32* | x | 1.1
CCOC(=O)/C(C)=C1\NC(C)(C)Cc2ccccc21 | 1% | x | 7 | -20 | 0.1
O=C(O)CCC(=O)N(Cc1cccs1)Cc1cccs1 | -13% | -3 | 8 | -10 | 2.3

Grouped by structure: those above with fluorine
SMILES | Mtb H37Rv | Mtb bLac sens | Arbovirus anti | YopH PTP inh | RecA splice inh | others
COc1ccccc1CNC(=O)[C@@H]1CCCN1S(=O)(=O)c1ccccc1F | x | 1 | x | x | 0.3
O=C(Nc1ccccc1)c1ccc(F)cc1F | -19% | -11 | x | x | 0.1

Reprinted at random: 7 records from the list, in no set order.
SMILES | Mtb H37Rv | Mtb bLac sens | Arbovirus anti | YopH PTP inh | RecA splice inh | others
O=C(Nc1ccccc1)c1ccc(F)cc1F | -19% | -11 | x | x | 0.1
COc1ccc(NS(=O)(=O)c2ccc3c(c2)n(C)c(=O)n3C)cc1 | -5% | -8 | 1 | -3 | -3.3
Cc1ccc(CSc2ncnc3ccccc23)cc1 | 5% | 8 | 8 | x | 0.9
CC(C)c1noc2ncc(C(=O)c3cc(Cl)cc(Cl)c3O)cc12 | -6% | -2 | 14 | -8 | 1.7
Cc1ccc(-n2cccc2/C=C2\C(=N)N3N=C(C(C)C)SC3=NC2=O)cc1 | 6% | 3 | 32* | x | 1.1
Cc1nn(-c2ccccc2)c2c1C(c1cccs1)C(C#N)=C(N)O2 (centres undefined) | -2% | 0 | 0 | -5 | 92*
CCOC(=O)/C(C)=C1\NC(C)(C)Cc2ccccc21 | 1% | x | 7 | -20 | 0.1

Other compounds:
SMILES | Mtb H37Rv | Mtb bLac sens | Arbovirus anti | YopH PTP inh | RecA splice inh | others
Cc1ccc(C(=O)N2CCN(C)CC2)cc1S(=O)(=O)N1CCCCC1 | -5% | x | 2 | -1 | 0.3 | Arbovirus anti repeat=6
Cc1cc(N)n(-c2ccc(Oc3ccccc3)c(S(=O)(=O)O)c2)n1 | -7% | x | 16 | x | 4.5
Cc1ccc(C)c(NS(=O)(=O)c2ccc3[nH]c(=O)[nH]c3c2)c1 | -3% | -3 | x | x | -1.5
N#CCCC(CCC#N)C1=NCCc2ccccc21 | -10% | 0 | x | x | 1.7
O=S(=O)(c1ccc(Cl)cc1)n1ccc2cccnc21 | -9% | -9 | -11 | -41 | 3.0
Cc1nc(COc2cc3oc(=O)cc(C)c3cc2Cl)cs1 | x | -8 | x | x | -3.0
COc1ccc(NC(=O)N2CCC(O)(c3cccnc3)CC2)c(OC)c1 | -4% | -4 | 5 | 31 | 0.8
O=C(COC(=O)c1ccccn1)Nc1nc(-c2ccccc2)cs1 | x | 2 | x | x | 3.7
O=C(NCC(=O)N(CC1CCCO1)C(C(=O)NC1CCCCC1)c1ccccc1)c1ccco1 (centres undefined) | -1% | -2 | 2 | x | x
O=C(Nc1nnc(Cc2ccccc2)s1)c1ccccc1 | x | -2 | x | x | 0.5
CCN1CCN(Cc2ccc(OC)c(OCc3ccccc3)c2)CC1 | -4% | 2 | 3 | -19 | 0.2
CC(=O)c1ccc(N2CCN(C(=O)c3ccc(-c4ccccc4)cc3)CC2)cc1 | x | -6 | x | x | 0.2
CCN(CCCNC(=O)C1CCN(S(=O)(=O)c2cccc3nonc23)CC1)Cc1ccccc1 | -4% | -1 | 3 | 1 | 2.7
OC(CCN1CCCCC1)(c1ccccc1)C1CCCCC1 (centres undefined) | -5% | -5 | 3 | -23 | 0.3
COc1ccc(CCNC(=O)CCNC(=O)c2ccco2)cc1 | x | 8 | x | x | 2.1
O=C(Nc1ccc(Br)c(C(F)(F)F)c1)c1ccc(C(F)(F)F)cc1 | u | 97 | x | x | 14
O=C(/C=C\NCC(=O)c1ccccc1)c1ccccc1 | 3% | 6 | 5 | -24 | 4.9
CCc1cccc2c(C(=O)C(NCCCOC)c3ccccc3)c[nH]c12 (centres undefined) | x | 7 | x | x | 0.9
CCN(CC(=O)Nc1ccc2c(c1)OCCO2)C(=O)c1ccc(S(=O)(=O)N(C)C)cc1 | x | -6 | x | x | 2.7
CCOC(=O)C1=C(CSc2nc(-c3ccccc3)ccc2C#N)OC(N)=C(C#N)C1c1ccc(OC)cc1 (centres undefined) | -5% | -4 | -6 | -22 | -14
CS(=O)(=O)N1CCC(C(=O)NCc2ccc3c(c2)OCO3)CC1 | -2% | -7 | 4 | x | -3.2
Cc1ccc2nc(-c3ccccc3Cl)cc(C(=O)Nc3cc(C)on3)c2c1 | 67% | 98 | 34* | 12 | 8.8
O=C1COc2ccc(S(=O)(=O)Nc3ccc(OC(F)(F)F)cc3)cc2N1 | x | -4 | x | x | -0.3
O=C(N/N=C1/CC2C=CCC12)c1ccc(Br)o1 (centres undefined) | 9% | 7 | 1 | -23 | -0.9
O=C(CNc1ccc(C(F)(F)F)cc1[N+](=O)[O-])OCC(=O)c1ccccc1 | 1% | 32 | -1 | -12 | 3.0

Continuation.
SMILES | Mtb H37Rv | Mtb bLac sens | Arbovirus anti | YopH PTP inh | RecA splice inh | others
CC1(C)C(C(=O)NCc2ccco2)C1(C)C | 8% | -5 | 2 | -53 | 2.9
Cc1cscc1NC(=O)/C=C/C(=O)O | x | 0 | x | x | -2.0
CCOc1cc2c(cc1/C=C(/C#N)c1ccc(C(=O)O)cc1)OCO2 | -3% | 2 | 2 | x | -0.5
COc1ccc(CNc2ncc(-c3cccc([N+](=O)[O-])c3)n2C)c(OC)c1OC | x | 2 | x | x | -0.2
CCCNC(=O)Cn1cc(S(=O)(=O)N2CCCC2)c(S(=O)(=O)N2CCCC2)c1 | x | -7 | x | x | -0.7
CCOc1ccccc1Nc1cc2n(c(=O)n1)CCc1cc(OC)c(OC)cc1-2 | x | -1 | x | x | 0.1
COc1ccc(OCCSc2nc3ccccc3c(=O)[nH]2)cc1 | 9% | 26 | -2 | -33 | 0.2
Cc1ccc(Cn2nnc3c(=O)n(CC(=O)NCC4CCCO4)cnc32)cc1 (centres undefined) | -1% | 0 | 2 | -19 | x
CCCN1CCN(CCCNC(=O)Cn2nc(-c3ccccc3)ccc2=O)CC1 | -8% | 4 | 0 | -43 | -2.0
CCOC(=O)C1(Cc2ccc(OC)cc2)CCN(C(=O)c2cncs2)CC1 | 4% | -11 | 5 | x | 2.4
CCN(CC)CCNC(=O)c1cn(-c2ccccc2)nc1-c1cccs1 | x | 9 | -33 | -6 | -0.4
CSc1nc(N)c2c3c(sc2n1)COC(C(C)C)C3 (centres undefined) | 1% | 4 | -2 | 14 | -1.0
CCOC(=O)c1ccc2ncc(C(=O)OCC)c(NCCCN3CCOCC3)c2c1 | -2% | -7 | 4 | -20 | 0.3 | Arbovirus anti repeat=-4
COc1ccc(Cl)cc1S(=O)(=O)N1CCN(CC(=O)C(C)(C)C)CC1 | -2% | 11 | 1 | -14 | 2.9
COCCCNC(=O)C(CC(N)=O)NC(=O)OCc1ccccc1 (centres undefined) | -3% | -5 | x | x | -2.0
COc1ccc(C(=O)NCC(=O)NC2=NCCS2)cc1 | -4% | -2 | -1 | -36 | 1.2 | Arbovirus anti repeat=1
COc1cccc(-c2nnc3n2N=C(c2cccc(Br)c2)CS3)c1 | -3% | 5 | 0 | -25 | -1.1
CCC1Sc2ccc(S(=O)(=O)Nc3cc(OC)cc(OC)c3)cc2NC1=O (centres undefined) | x | 1 | x | x | -7.1
COc1cc(NC(=O)COC(C)=O)c(C)cc1[N+](=O)[O-] | 1% | -5 | -9 | -13 | -1.6
COc1ccccc1OCCn1cc(/C=N/NC(N)=S)c2ccccc21 | 70% | 89 | -3 | x | 7.6
CC(CNS(=O)(=O)c1ccc2c(c1)CC(=O)N2C)c1ccccc1 (centres undefined) | x | -3 | x | x | 4.4
O=c1cc2[nH]c3ccccc3c(=O)n2nc1-c1ccccc1 | 5% | 94 | -9 | 14 | -58
Cc1ccc(C(=O)NC2CCN(S(=O)(=O)c3ccccc3F)CC2)cc1 | x | -3 | x | x | -0.2
O=C(NCCCN1CCOCC1)c1cc(Cl)ccc1[N+](=O)[O-] | -3% | 3 | -5 | -21 | -0.1
CCC(C)NC(=O)Nc1ccccc1C (centres undefined) | -1% | -10 | -1 | -6 | -0.6

Remaining list, next part.
SMILES | Mtb H37Rv | Mtb bLac sens | Arbovirus anti | YopH PTP inh | RecA splice inh | others
CCCc1cc(C(=O)N/N=C/c2ccc(C)o2)c2ccccc2n1 | -11% | -10 | -4 | -18 | -3.2
O=C(N/N=C1/CCCc2ccccc21)C(c1ccccc1)c1ccccc1 | 5% | -3 | -1 | 8 | 4.1
COc1ccc(C(=O)Nc2ccc(S(=O)(=O)Nc3cc(C)nc(C)n3)cc2)cc1 | -6% | 43 | x | x | 1.1
CC(c1ccccc1)n1cnc2ccccc2c1=O (centres undefined) | x | -2 | x | x | 0.7
COC(=O)c1ccc(C(=O)OC)c(NC(=O)C2CC2)c1 | 1% | 3 | -8 | -14 | 2.9
Cc1cc(NC(=O)COC(=O)c2c(C)nn(-c3ccccc3)c2C)no1 | -11% | 2 | 6 | 4 | 1.1
CCS(=O)(=O)NCCc1csc(C)n1 | -4% | -4 | 15 | -34 | -0.2
O=C(O)CCN=C1CCc2ccccc2N1 | x | -2 | 3 | -19 | -0.7
CN1CCN(C(=O)c2cn(-c3ccccc3)nc2-c2cccs2)CC1 | 2% | 7 | 0 | x | -1.9
COc1ccc(S(=O)(=O)N2Cc3ccccc3CC2C(=O)Nc2ccc3c(c2)OCO3)cc1 (centres undefined) | 2% | -9 | 1 | -9 | 5.7
O=C(NCC1CCCO1)C(c1ccncc1)N(Cc1cccs1)C(=O)Cn1nnc(-c2ccc(F)cc2)n1 (centres undefined) | 3% | 4 | -10 | x | -1.6
COc1cc(C(C(=O)Nc2c(C)cccc2C)N(C)C(=O)c2ccc(-n3cnnn3)cc2)ccc1O (centres undefined) | 6% | -3 | x | x | 0.4
C[N+]1(CCC(=O)c2ccccc2)CCCCC1 | 3% | 12 | 0 | -26 | -0.5
O=C(O)COc1ccccc1/C=N/NC(=O)CNC(=O)c1ccco1 | x | 2 | x | x | -4.0

Compound activity from PubChem.
